STAT3 SMM: binders of human STAT3; AID 624138; P40763; calls only; 0.2% of 17,000 active; Small molecule microarray, His-STAT3 binding, anti-His fluorescence;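 active = compounds whose four printed spots each show fluorescence over background unusually high for their array block, chance value under 7%; compounds were printed on slides so no solution concentration is given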;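 note: about 2 pmol printed per array spot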
Myc binder: c-Myc (human) binding; P01106; small molecule microarray, His-c-Myc binding, anti-His fluorescence; calls only; 1.5% of 17,000 active; AID 624141;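 active = spot fluorescence over background with P-value below 7% in all four replicate spots, showing protein binding; compounds were printed on slides so no solution concentration is given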;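 note: score is binary with 100 for all four spots passing and 0 otherwise; about 2 pmol printed per array spot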
Target sequence (P01106 whole entry, looked up): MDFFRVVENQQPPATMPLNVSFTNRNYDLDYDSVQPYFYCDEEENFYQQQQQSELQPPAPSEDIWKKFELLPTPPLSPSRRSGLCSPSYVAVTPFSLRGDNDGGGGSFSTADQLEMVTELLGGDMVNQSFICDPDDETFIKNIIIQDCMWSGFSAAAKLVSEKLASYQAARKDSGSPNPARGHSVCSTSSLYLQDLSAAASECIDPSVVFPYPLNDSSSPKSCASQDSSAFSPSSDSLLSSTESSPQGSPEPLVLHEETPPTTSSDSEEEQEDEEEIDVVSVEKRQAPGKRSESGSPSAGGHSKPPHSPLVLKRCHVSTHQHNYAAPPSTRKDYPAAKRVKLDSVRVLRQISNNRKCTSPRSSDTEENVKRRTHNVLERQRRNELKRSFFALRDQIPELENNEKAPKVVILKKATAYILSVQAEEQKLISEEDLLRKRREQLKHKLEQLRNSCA
ID4 SMM: ID4 (human) binding; small molecule microarray, Flag-ID4 binding, fluorescence F/B; calls only; 1.2% of 31,000 active; AID 624137;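 active = spot signal over background at p below 0.07 in all four prints; compounds were printed on slides so no solution concentration is given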;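 note: a binder raises fluorescence above local background on the spot; about 2 pmol printed per array spot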
Target sequence (P47928 whole entry, looked up): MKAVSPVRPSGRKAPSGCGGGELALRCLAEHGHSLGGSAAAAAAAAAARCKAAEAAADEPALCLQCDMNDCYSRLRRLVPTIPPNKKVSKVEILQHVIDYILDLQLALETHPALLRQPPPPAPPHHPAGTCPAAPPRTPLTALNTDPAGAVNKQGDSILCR
mut p53 SMM: binders of human mutant p53; small molecule microarray binding, anti-GST fluorescence; calls only; 0.4% of 17,000 active;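 active = compounds whose four printed spots each glow above background more than chance allows, each with a p-value under 7%; compounds were printed on slides so no solution concentration is given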;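 note: about 2 pmol printed per array spot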
Calls only; i = inactive; x = not tested or not shown; + = active, no number.

SMILES	STAT3 SMM	Myc binder	ID4 SMM	mut p53 SMM
COc1ccc(S(=O)(=O)Nc2cccc3c2O[C@@H](CN(C)C(=O)Nc2ccc4c(c2)OCO4)[C@@H](C)CN([C@H](C)CO)C3=O)cc1	i	i	x	i
C[C@@H]1CN([C@H](C)CO)C(=O)c2cc(NS(=O)(=O)c3cccs3)ccc2O[C@@H]1CN(C)Cc1ccc(-c2ccccc2)cc1	i	i	i	i
Cc1cccc(NC(=O)COc2ccc3c(=O)c(-c4ccccc4)coc3c2)c1C	i	i	i	i
COc1ccc(CN(C)C[C@@H]2Oc3ccc(NC(=O)Cc4cn(C)c5ccccc45)cc3CC(=O)N([C@@H](C)CO)C[C@@H]2C)cc1	i	i	i	i
COc1ccc(NC(=S)Nc2cnn(C)c2C(N)=O)c(OC)c1	i	i	i	i
C[C@H]1CN([C@@H](C)CO)C(=O)c2cc(NC(=O)NC3CCCCC3)ccc2O[C@H]1CN(C)Cc1ccc2c(c1)OCO2	i	i	i	i
CNC[C@H]1OCCCC[C@@H](C)Oc2ccc(N(C)C)cc2C(=O)N([C@H](C)CO)C[C@H]1C	i	i	i	i
COc1ccc(S(=O)(=O)N(C)C[C@@H]2Oc3ccc(NS(=O)(=O)c4ccc(C)cc4)cc3C(=O)N([C@H](C)CO)C[C@H]2C)cc1	i	i	x	i
Cc1noc(C)c1NC(=O)Nc1cccc2c1O[C@@H](CN(C)Cc1ccc3c(c1)OCO3)[C@@H](C)CN([C@H](C)CO)C2=O	i	i	i	i
CNC[C@@H]1Oc2c(NC(=O)c3ccncc3)cccc2C(=O)N([C@H](C)CO)C[C@@H]1C	i	i	i	i
Cc1noc(C)c1NC(=O)Nc1ccc2c(c1)CC(=O)N([C@H](C)CO)C[C@H](C)[C@H](CN(C)S(=O)(=O)c1cccs1)O2	i	i	i	i
CNC[C@H]1Oc2c(NC(=O)c3cnccn3)cccc2C(=O)N([C@@H](C)CO)C[C@@H]1C	i	i	i	i

One compound at a time, from the list above. Screens in order: STAT3 SMM, Myc binder, ID4 SMM, mut p53 SMM
COc1ccc(NC(=S)Nc2cnn(C)c2C(N)=O)c(OC)c1 as listed: i, i, i, i
COc1ccc(CN(C)C[C@@H]2Oc3ccc(NC(=O)Cc4cn(C)c5ccccc45)cc3CC(=O)N([C@@H](C)CO)C[C@@H]2C)cc1 as listed: i, i, i, i
COc1ccc(S(=O)(=O)Nc2cccc3c2O[C@@H](CN(C)C(=O)Nc2ccc4c(c2)OCO4)[C@@H](C)CN([C@H](C)CO)C3=O)cc1 as listed: i, i, x, i

Other results
SMILES	STAT3 SMM	Myc binder	ID4 SMM	mut p53 SMM
CC1=C(SCCO)C(=O)c2ccccc2C1=O	i	i	i	i
CC1C(=O)C23CC(O)C4C(C)(C(=O)OC5OC(CO)C(O)C(O)C5O)CCCC4(C)C2(O)CCC1C3 (stereo not drawn)	i	i	x	i
CCCC[C@@H](O)c1cc(OC)cc(=O)o1	i	i	i	i
NCCCCCCNC(=O)[C@@H]1C[C@@H]2C(=O)NCC(=O)N2[C@@H]1c1ccc(O)cc1	i	i	+	i
Cc1noc(C)c1NC(=O)N(C)C[C@@H]1Oc2c(NC(=O)Nc3ccc(C(F)(F)F)cc3)cccc2C(=O)N([C@@H](C)CO)C[C@@H]1C	i	i	i	i
CC(=O)O[C@H]1C[C@@]2(C)[C@@H](C[C@@H](O)[C@H]3[C@@]4(C)CC[C@@H](O)[C@@H](C)C4CC[C@@]32C)/C1=C(\CCC=C(C)C)C(=O)O (stereo partly drawn)	i	i	i	i
Cc1noc(C)c1S(=O)(=O)Nc1cccc2c1O[C@@H](CN(C)Cc1ccc(Oc3ccccc3)cc1)[C@@H](C)CN([C@H](C)CO)C2=O	i	i	i	i
C[C@H]1CCCCO[C@H](CN(C)S(=O)(=O)c2ccccc2)[C@@H](C)CN([C@@H](C)CO)C(=O)c2cc(NC(=O)Nc3ccc4c(c3)OCO4)ccc2O1	i	i	x	i
CC1(C)Cc2c(sc3c2c2ncnn2c2nnc(SCC(=O)c4ccc(Br)cc4)n32)CO1	i	i	i	i
C[C@H](CO)N1C[C@H](C)[C@H](CN(C)S(=O)(=O)c2cccs2)Oc2c(NC(=O)Nc3ccc(C(F)(F)F)cc3)cccc2C1=O	i	i	i	i
Cc1nn(CCCC(=O)O)c(C)c1[N+](=O)[O-]	i	+	i	i
COc1ccc(NC(=O)Nc2cccc3c2O[C@H](CN(C)C)[C@H](C)CN([C@H](C)CO)C3=O)cc1	i	i	i	i
CS(=O)(=O)N(CC(=O)O)c1ccc(C23CC4CC(CC(C4)C2)C3)cc1	i	+	i	i
COC(=O)COc1cccc(NC(=O)c2ccccc2)c1	i	i	i	i
C[C@@H]1CN([C@H](C)CO)C(=O)c2cc(NC(=O)Nc3ccc(F)cc3)ccc2O[C@@H](C)CCCCO[C@@H]1CN(C)C(=O)Cc1ccccc1	i	i	i	i
C[C@H]1CN([C@@H](C)CO)C(=O)Cc2cc(NC(=O)Nc3ccccc3)ccc2O[C@@H]1CN(C)Cc1ccncc1	i	i	i	i
C[C@@H]1CN([C@@H](C)CO)C(=O)CCCn2nncc2CO[C@@H]1CN(C)Cc1ccc(Oc2ccccc2)cc1	i	i	i	i
CC12CC34CC(O)C5C(CO)(CO)CC(=O)CC5(C)C3CC1C2C4 (stereo not drawn)	i	i	x	i
Cc1cc(Br)cc(C)c1OCC(=O)Nc1sc(C)c(C)c1C(N)=O	i	i	i	i
CCOC(=O)C1CCCCN1Cc1cc(OC)ccc1OC (stereo not drawn)	i	+	i	i
CC(C)CC(NC(=O)OCC1c2ccccc2-c2ccccc21)C(=O)O (stereo not drawn)	i	i	i	i
O=C(CSc1nc(N2CCCCC2)nc(N2CCCCC2)n1)c1ccccc1	i	i	i	i
C[C@@H]1CCCCO[C@@H](CN(C)Cc2ccncc2)[C@H](C)CN([C@H](C)CO)C(=O)c2cc(NC(=O)Nc3ccccc3)ccc2O1	i	i	+	i
COc1cc2c(cc1OC)CN(C(=O)[C@H]1[C@@H]3C(=O)O[C@@H](c4ccccc4)[C@@H](c4ccccc4)N3[C@@H](c3ccc(OCCO)cc3)[C@]13C(=O)Nc1ccc(C#CC4(O)CCCCCC4)cc13)CC2	i	i	x	i
O=C(CCCCCCCCc1ccccc1)c1c(O)cc(O)cc1O	i	i	i	i
COc1cc(C=O)c([N+](=O)[O-])cc1OC	i	i	i	i
CCn1c(SCC(=O)Nc2cc(C)ccc2OC)nnc1-c1ccc(Cl)cc1	i	i	i	i
Cc1noc(C)c1NC(=O)N(C)C[C@@H]1OCCCC[C@H](C)Oc2ccc(NC(=O)Cc3ccccc3)cc2C(=O)N([C@@H](C)CO)C[C@@H]1C	i	i	i	i
C[C@H]1CN([C@@H](C)CO)C(=O)Cc2cc(N(C)C)ccc2O[C@@H]1CN(C)S(=O)(=O)c1ccccc1	i	i	i	i
CCO[C@@H]1OC(C(=O)Nc2ccccc2)=C[C@H](c2cn(C(C)=O)c3ccccc23)[C@H]1CCCO	i	i	i	i
Cc1cc2nc(SCc3nc4ccccc4[nH]3)[nH]c2cc1C	i	i	i	i
COc1ccccc1CN(C)C[C@@H]1OCc2cnnn2CCCC(=O)N([C@H](C)CO)C[C@H]1C	i	i	i	i
COc1ccccc1C1(CC(=O)O)CCOC(C(C)C)C1 (stereo not drawn)	i	i	i	i
C[C@H]1CN([C@@H](C)CO)C(=O)Cc2cc(NC(=O)c3ccncc3)ccc2O[C@@H]1CN(C)S(=O)(=O)c1ccccc1	i	i	i	i
C[C@@H]1CN([C@@H](C)CO)C(=O)c2cccc(NS(=O)(=O)c3cccs3)c2O[C@@H]1CN(C)Cc1ccc(C(F)(F)F)cc1	i	i	i	i
CN(C)CCCNc1c([N+](=O)[O-])c(=O)n(C)c2ccccc12	i	i	i	i

Reformatted: 2 of the compounds above
Each structure is followed by: STAT3 SMM	Myc binder	ID4 SMM	mut p53 SMM
- C[C@H]1CN([C@@H](C)CO)C(=O)Cc2cc(N(C)C)ccc2O[C@@H]1CN(C)S(=O)(=O)c1ccccc1
  i	i	i	i
- CCO[C@@H]1OC(C(=O)Nc2ccccc2)=C[C@H](c2cn(C(C)=O)c3ccccc23)[C@H]1CCCO
  i	i	i	i

(next part)
SMILES	STAT3 SMM	Myc binder	ID4 SMM	mut p53 SMM
C[C@H]1CN([C@@H](C)CO)C(=O)Cc2cc(NC(=O)Nc3ccc(F)cc3)ccc2O[C@@H]1CN(C)C(=O)NC1CCCCC1	i	i	i	i
C=CC(C)(C)C12CC3C(=O)NC(Cc4cnc[nH]4)C(=O)N3C1Nc1ccccc12 (stereo not drawn)	i	i	x	i
COc1cc(O)c2c(c1)CCc1cc(OC)c(OC)cc1-2	i	i	x	i
C[C@@H]1CN([C@H](C)CO)C(=O)c2cccc(NC(=O)C3CCOCC3)c2O[C@H]1CN(C)Cc1ccc(C(F)(F)F)cc1	i	i	i	i
C[C@@H]1CN([C@H](C)CO)C(=O)c2cc(N(C)C)ccc2O[C@@H](C)CCCCO[C@H]1CN(C)S(=O)(=O)c1ccccc1	i	i	i	i
COc1ccc(NC(=O)Nc2ccc3c(c2)C(=O)N([C@H](C)CO)C[C@@H](C)[C@@H](CN(C)Cc2ccc(C(=O)O)cc2)O3)cc1	i	i	i	i
C[C@@H]1CN([C@@H](C)CO)C(=O)c2cc(NC(=O)Nc3ccc(F)cc3)ccc2O[C@@H]1CN(C)C(=O)NC1CCCCC1	i	i	i	i
CC(C)NC(=O)N(C)C[C@@H]1OCCCC[C@@H](C)Oc2ccc(NC(=O)Cc3ccccc3)cc2C(=O)N([C@H](C)CO)C[C@@H]1C	i	i	i	i
C[C@@H]1CCCCO[C@@H](CN(C)C(=O)CCC(F)(F)F)[C@@H](C)CN([C@H](C)CO)C(=O)c2cc(NC(=O)Cc3ccccc3)ccc2O1	i	i	i	i
COCCOC(=O)N1C(=O)[C@@]2(c3cc(C#CC4=CCCCC4)ccc31)[C@H](C(=O)NC[C@H](O)c1ccccc1)[C@H]1C(=O)O[C@H](c3ccccc3)[C@H](c3ccccc3)N1[C@@H]2c1ccc(O)cc1	i	i	i	i
C[C@H]1CN([C@@H](C)CO)C(=O)c2cccc(NS(=O)(=O)c3ccc(Cl)cc3)c2O[C@@H]1CN(C)Cc1ccc(C(=O)O)cc1	i	i	i	i
Cc1noc(C)c1S(=O)(=O)N(C)C[C@@H]1OCCCC[C@@H](C)Oc2ccc(NS(C)(=O)=O)cc2C(=O)N([C@@H](C)CO)C[C@H]1C	i	i	i	i
CC(C)NC(=O)N(C)C[C@H]1OCCCC[C@H](C)Oc2ccc(NC(=O)Cc3ccccc3)cc2C(=O)N([C@H](C)CO)C[C@@H]1C	i	i	i	i
Cc1noc(C)c1NC(=O)Nc1ccc2c(c1)CC(=O)N([C@H](C)CO)C[C@@H](C)[C@H](CN(C)C(=O)NC(C)C)O2	i	i	i	i
C#CCNC(=O)C1=C[C@@H](C2CC2)[C@H](CCCO)[C@@H](OCC)O1	i	i	i	i
COC(=O)c1ccccc1NC(=O)COc1ccc(Br)cc1C(C)(C)C	i	i	i	i
Cc1ccnc(NS(=O)(=O)c2ccc(NS(C)(=O)=O)cc2)n1	i	i	i	i
COc1ccc(NC(=O)Nc2cccc3c2O[C@H](CN(C)CC2CC2)[C@@H](C)CN([C@@H](C)CO)C3=O)cc1	i	i	i	i
Cc1noc(C)c1S(=O)(=O)Nc1ccc2c(c1)C(=O)N([C@H](C)CO)C[C@@H](C)[C@@H](CN(C)C)OCCCC[C@@H](C)O2	i	i	i	i
COc1ccc(CN(C)C[C@H]2OCCCC[C@@H](C)Oc3ccc(NS(=O)(=O)c4ccc(F)cc4)cc3C(=O)N([C@H](C)CO)C[C@@H]2C)cc1	i	i	x	i
C[C@H](CO)N1C[C@H](C)[C@H](CN(C)S(=O)(=O)c2ccc(C#N)cc2)Oc2ncc(-c3ccccc3)cc2C1=O	i	i	i	i
Cc1occc1-c1nnc2sc(-c3ccc(-c4ccccc4[N+](=O)[O-])o3)nn12	i	i	i	+
CCc1cc2c(NC(Cc3c[nH]c4ccccc34)C(=O)O)nc(C)nc2s1 (stereo not drawn)	i	i	i	i
C[C@H](CO)N1C[C@H](C)[C@H](CN(C)Cc2ccncc2)Oc2ccc(N(C)C)cc2CC1=O	i	i	i	i
C[C@@H]1CN([C@H](C)CO)C(=O)c2cccc(NS(C)(=O)=O)c2O[C@H]1CN(C)C(=O)Nc1ccc(C(F)(F)F)cc1	i	i	i	i
CC(C)(C)[C@@H]1C=C(C(=O)O)O[C@H](OCc2ccc(CO)cc2)C1	i	i	x	i
CO[C@H]1O[C@H](CO)[C@@H](OC(=O)Nc2cccc(F)c2)[C@H](OC(=O)Nc2ccccc2)[C@H]1OC(=O)Nc1ccccc1	i	i	i	i
CNC[C@H]1Oc2ccc(NS(=O)(=O)c3ccccc3)cc2CC(=O)N([C@H](C)CO)C[C@@H]1C	i	i	i	i
C[C@@H]1CN([C@H](C)CO)C(=O)c2cccc(NS(=O)(=O)c3cccs3)c2O[C@@H]1CN(C)C(=O)Nc1ccc(F)cc1	i	i	x	i
COc1ccc2c(=O)cc(-c3ccccc3)oc2c1	i	i	x	i
CCCn1c(SCC(=O)N2CCOCC2)nnc1-c1ccncc1	i	i	i	i

The list is partial, so the mix of outcomes need not match the whole.
